# ERK AVP block: blocks ERK signaling stimulated by vasopressin | HEK293-V1b, vasopressin-stimulated pERK AlphaScreen | Potency, µM (highest dose often 57.5 µM), inactives show top-dose activity, negative = inhibition, usual class: inhibitors | 72,000 compounds, 0.99% hits; also: potency is read from the fitted curve at half-maximal effect; % is scaled to controls: 0 for no effect and ±100 for the full control effect; nearly all actives have a fitted effect of over 55% in size
#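 Overnight-seeded V1b-HEK293 cells in 1% FBS got compound, then vasopressin (25 nM final, 5 min, 37C), then lysis buffer. AlphaScreen detection of phospho-ERK; activity normalized to basal and full-stimulation controls.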
# TexasRed autofl: compound fluoresces in the Texas Red spectral region | Compound fluorescence, Texas Red channel, 547/618 nm; stronger effect = higher value | max dye-equivalent concentration, M | 59,000 compounds, 0.06% hits | AID 587; in the data active = max dye-equivalent concentration above about 10 nM; inconclusive = between about 1.1 nM and that limit
#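 Fluorescence at ex 547/em 618 nm, normalized against an on-plate Texas Red standard series to give dye-equivalent concentration per compound concentration. Buffer 100 mM Tris, pH 8.0; 15 min RT incubation before CCD imaging.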
# HADH2 inhib: inhibitors of human HADH2 dehydrogenase. recombinant HADH2, NADH fluorescence, beta-hydroxybutyryl-CoA. 73,000 compounds, 3.4% hits. Potency, µM (top dose mostly 57.1 µM), inactives show at the top dose activity change, negative = inhibition, actives largely listed as inhibitors. Q99714. AID 886; also: potency is read from the fitted curve at half-maximal effect; % is scaled to controls: 0 for no effect and ±100 for the full control effect; nearly all actives have a fitted effect of over 60% in size; many of its hits are not listed in these tables
# Target sequence (Q99714 whole entry, looked up, one chain of several): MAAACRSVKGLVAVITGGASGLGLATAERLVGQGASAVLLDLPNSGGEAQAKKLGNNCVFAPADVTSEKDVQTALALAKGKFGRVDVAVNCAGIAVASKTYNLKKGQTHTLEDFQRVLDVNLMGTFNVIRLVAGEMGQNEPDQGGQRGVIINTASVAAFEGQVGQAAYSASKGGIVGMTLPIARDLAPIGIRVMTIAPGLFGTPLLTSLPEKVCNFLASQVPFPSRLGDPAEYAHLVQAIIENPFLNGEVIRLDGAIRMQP
#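 E. coli-expressed His-tagged HADH2 tested at 20 nM in alkaline Tris buffer (pH 9.0); oxidation of 90 uM beta-hydroxybutyryl-CoA with 1 mM NAD+ tracked fluorimetrically for 4 min.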
# Rhodamine fluor: rhodamine region autofluorescence | 59,000 compounds, 0.05% hits | Rhodamine-region fluorescence, 547/598 nm, Tris buffer; stronger effect = higher value | max dye-equivalent concentration, M; in the data active = max dye-equivalent concentration above about 11 nM; inconclusive = between about 1.1 nM and that limit
#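 Read-out is relative fluorescence at 547 nm excitation and 598 nm emission, expressed as dye-equivalent concentration using rhodamine standards on every plate. Each compound was profiled across a concentration series after 15 min in 100 mM Tris, pH 8.0.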
# USP2a inhib: blocks human ubiquitin-specific protease USP2a. USP2a enzymatic assay, qHTS inhibition. Potency, µM (highest dose often 38.3 µM), inactives show at the top dose activity change, negative = inhibition, usual class: inhibitors. 60,000 compounds, 0.1% hits. AID 927;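 also: potency is read from the fitted curve at half-maximal effect; nearly all actives have a fitted effect of over 60% in size; plate controls were DMSO for no effect and NEM full inhibition control for full effect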
#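 Inhibition is measured in a cell-free coupled assay with 20 nM USP2 core, 20 nM Ub-PLA2 and 20 uM NBD C6-HPC, 2.5 h incubation. Activity normalized to NEM control.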
# Fluorescein fluor: compound fluoresces in the fluorescein spectral region | Compound autofluorescence, 480/540 nm, fluorescein-equivalent; stronger effect = higher value | max fluorescein-equivalent concentration, M | 59,000 compounds, 0.91% hits | AID 593; in the data active = max fluorescein-equivalent concentration above about 10 nM; inconclusive = between about 1.1 nM and that limit
#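 Read-out is intrinsic compound fluorescence at 480/540 nm (excitation/emission), expressed as dye-equivalent concentration using a fluorescein standard series run on every plate. Compounds sat 15 min at room temperature in 100 mM Tris, pH 8.0.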
# Luciferase inh: firefly luciferase inhibition | Potency, µM (highest dose often 57.1 µM), inactives show top-dose activity change, negative = inhibition, hits mostly inhibitors | purified firefly luciferase, luminescence, 8 min | 72,000 compounds, 2.2% hits; also: potency is read from the fitted curve at half-maximal effect; % is scaled to controls: 0 for no effect and ±100 for the full control effect; nearly all actives have a fitted effect of over 40% in size
# Target sequence (P08659 whole entry, looked up): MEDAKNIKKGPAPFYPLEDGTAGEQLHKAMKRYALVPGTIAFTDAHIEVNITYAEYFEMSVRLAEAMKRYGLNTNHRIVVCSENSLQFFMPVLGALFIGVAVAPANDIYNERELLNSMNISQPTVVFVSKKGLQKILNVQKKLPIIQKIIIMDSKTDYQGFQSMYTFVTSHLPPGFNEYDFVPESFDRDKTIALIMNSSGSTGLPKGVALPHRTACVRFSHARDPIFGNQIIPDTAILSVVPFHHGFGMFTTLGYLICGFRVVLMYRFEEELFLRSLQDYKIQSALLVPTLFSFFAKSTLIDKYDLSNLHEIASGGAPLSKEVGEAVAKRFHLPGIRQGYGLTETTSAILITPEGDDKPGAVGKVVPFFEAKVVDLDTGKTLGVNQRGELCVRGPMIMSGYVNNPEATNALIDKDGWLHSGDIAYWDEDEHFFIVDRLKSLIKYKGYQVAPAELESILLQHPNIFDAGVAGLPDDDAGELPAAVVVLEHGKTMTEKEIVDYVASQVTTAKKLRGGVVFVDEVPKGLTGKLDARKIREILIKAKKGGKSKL
#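 Compounds were tested as concentration series (qHTS) against purified P. pyralis luciferase with luciferin and 10 uM ATP in 50 mM imidazole pH 7.2, 50 mM KCl, 7 mM MgCl2, 0.01% Tween 20, 0.05% BSA. Luminescence was read after 8 min at ambient temperature.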
# HEK293 cAMP cs: raises cAMP in parental HEK293 cells, TSHR agonist counter-screen; parental HEK293 CNG cAMP sensor, membrane potential fluorescence; Potency, µM (top dose mostly 57.1 µM), inactives show at the highest dose activation, hits mostly activators; 73,000 compounds, 2.5% hits; also: potency is read from the fitted curve at half-maximal effect; % of control where 0% means no effect; nearly all actives have a fitted effect of over 55% in size
#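 Counterscreen for endogenous-receptor signalling: CNG-channel HEK 293 cells report cAMP rise by membrane depolarization. After 60 min dye equilibration with 100 uM RO 20-1724, compounds incubated 30 min before bottom-read fluorescence at 590 nm.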
# Tau filament bind: tau filament binding | recombinant tau filaments, thioflavin S fluorescence, 15 h; filaments grown with octadecylsulfate alongside compound | AID 596 | Potency, µM (doses to about 57.1 µM), for the others: top-dose activity change, negative = inhibition | 71,000 compounds, 2% hits;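 also: potency is read from the fitted curve at half-maximal effect; % is scaled to controls: 0 for no effect and ±100 for the full control effect; actives lower thioflavin S fluorescence by blocking filaments or displacing dye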
#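 ThS-based fibril read: tau 1 uM final, inducer ODS 30 uM final, 37 C for 15 h, ex 450/em 510 nm.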
# * = called active by the depositor; i = inactive; ? = inconclusive; nt = not tested or not shown; [ ] = dose if it differs, or a comment. Unless noted, calls follow the shape of the dose curve; as a rule, active = well fitted curve in the direction sought with a large enough effect; inconclusive = small, poorly fitted or top-dose-only effect, or another doubt; inactive = no such curve, though single readings can be large; an effect the other way counts as inactive or inconclusive. Only part of the results is shown. The share of hits here may be higher or lower than overall.
SMILES,ERK AVP block,TexasRed autofl,HADH2 inhib,Rhodamine fluor,USP2a inhib,Fluorescein fluor,Luciferase inh,HEK293 cAMP cs,Tau filament bind
CCOC(=O)C1=CN(C)C=C(C(=O)OCC)C1c1ccsc1,-4%,i,32µM*,i,8%,?,1%,21%,7%
COc1ncc2nc(-c3cccs3)c(=O)n(CCC#N)c2n1,-23%,i,?,i,20%,?,-5%[11.4 µM],4%,41%
Cc1ccc(N2C(=O)c3cccc4c(N5CCN(C)CC5)ccc(c34)C2=O)c2cccnc12,-10%,i,-3%,i,22%,2.6e-08M*,3%,-2%,i
CC1CCCCN1C(=O)c1cnn2c(C(F)(F)F)cc(-c3ccco3)nc12 (stereo not drawn),28%,nt,-13%,nt,-1%,nt,0%,15%,-29%
CCNc1ncc2nc(-c3cc(F)cc(F)c3)c(=O)n(C3CC3)c2n1,6%,i,131%[activator],i,21%,i,1%[11.4 µM],13%,66%
CCCCn1c2nc3ccccc3nc2c2c(=N)oc(C)nc21,9%,?,?,?,8%,?,3%,?,285%
COc1ccc(-n2c(=O)c(-c3cccs3)nc3cnc(N(C)C)nc32)cc1,-8%,i,2%,i,24%,?,1%[11.4 µM],16%,i
COc1ccc(Oc2ncc3nc(-c4cccs4)c(=O)n(Cc4cccs4)c3n2)cc1,41%[activator],i,1%,i,164%[activator],i,1%[11.4 µM],?,?
Cc1ccc(-n2c(=O)c(C#N)cc3c(=O)n4ccccc4nc32)cc1,22%,i,i,i,5%,?,0%,-2%,-1%
CC1(C)CC(=O)C2=C(C1)OC(N)=C(C#N)C21CCN(Cc2ccccc2)CC1,8%,i,-3%,i,31%[activator],3.2e-08M*,0%,-3%,183%
CCn1c(CSc2nccn2C)nc2cc(C(=O)O)ccc21,21%,2.7e-08M*,?,1.7e-08M*,-5%,1.1e-08M*,7%,3%,28%
COc1cccc(Nc2ncc3nc(-c4cccs4)c(=O)n(-c4ccccc4)c3n2)c1,-8%,i,9%,i,77%[activator],?,0%[11.4 µM],-12%,i
CCCn1c(=NC(=O)c2ccncc2)c(C(=O)OCC)cc2c(=O)n3cccc(C)c3nc21,17%,i,11%,i,4%,i,0%,-7%,0%
CCNc1ncc2nc(-c3ccc(Cl)cc3)c(=O)n(C[C@H]3CCCO3)c2n1,?,i,56%[activator],i,56%[activator],?,1%[11.4 µM],6%,2%
CC(C)Cn1c(N)c(C(=O)NCC2CCCO2)c2nc3ccccc3nc21 (stereo not drawn),-4%,i,?,i,6%,?,0%,?,57%
Cn1c(=O)c(-c2ccc(F)cc2)nc2cnc(OCc3ccccc3)nc21,-16%,i,-9%,i,-20%,i,1%[11.4 µM],2%,1%
Cc1nc2cnc(N(C)C)nc2n(-c2ccccc2)c1=O,-25%,i,-6%,i,-1%,i,1%[11.4 µM],16%,-6%
COc1cccc(Nc2ncc3nc(-c4ccc(F)cc4)c(=O)n(C[C@H]4CCCO4)c3n2)c1,-15%,?,6%,i,109%[activator],i,-6%[11.4 µM],7%,57%
COCCn1c(=O)c(-c2ccc(OC)cc2)nc2cnc(Nc3cccc(OC)c3)nc21,7%,i,-4%,i,86%[activator],1e-08M*,-2%[11.4 µM],12%,104%
O=C(c1cnn2c(C(F)(F)F)cc(-c3ccco3)nc12)N1CCc2ccccc2C1,8%,i,-7%,i,38%[activator],?,1%,27%,?
COc1cccc(Cn2c(=O)c(-c3cn(C)c4ccccc34)nc3cncnc32)c1,-8%,i,-11%,i,220%[activator],i,0%[11.4 µM],9%,6%
CCOC(=O)/C=c1\s/c(=C\c2ccccc2OC)c(=O)n1CC(=O)N1CCOCC1,-20%,i,-9%,i,28%,?,-35%,-4%,-20%
CN1CCN(c2ncc3nc(-c4ccc(Cl)cc4)c(=O)n(Cc4ccc(F)cc4)c3n2)CC1,-5%,?,24%,i,158%[activator],i,-1%[11.4 µM],7%,?
Cn1c(=O)c(-c2cccs2)nc2cncnc21,-25%,i,10µM*,i,100%[activator],?,0%[11.4 µM],10%,i
COCCn1c(=O)c(-c2ccc(Cl)cc2)nc2cnc(N(C)C)nc21,21%,i,23%,i,45%[activator],i,-8%[11.4 µM],?,17%
# (listing goes on)
SMILES,ERK AVP block,TexasRed autofl,HADH2 inhib,Rhodamine fluor,USP2a inhib,Fluorescein fluor,Luciferase inh,HEK293 cAMP cs,Tau filament bind
CN(C)c1ncc2nc(-c3ccc(Cl)cc3)c(=O)n(Cc3ccc(F)cc3)c2n1,2%,i,3%,i,108%[activator],i,1%[11.4 µM],6%[0.457 µM],32%
CN(C)c1ncc2nc(-c3ccc(Cl)cc3)c(=O)n(C)c2n1,-8%,i,13%,i,34%[activator],?,-6%[11.4 µM],5%,11%
CN1CCN(c2ncc3nc(-c4ccc(F)cc4)c(=O)n(C4CC4)c3n2)CC1,4%,i,31%[activator],i,10µM*,i,1%[11.4 µM],-4%,-14%
CCN1C=C(C(=O)OC)C(c2cccc(C)c2)C(C(=O)OC)=C1,24%,nt,32µM*,nt,-2%,nt,-9%,14%,11%
O=c1c(O)c(-c2cccs2)oc2ccccc12,?,?,2%,i,38%[activator],3.2e-08M*,-3%,1%,456%
CCCCCn1c(=NC(C)=O)c(C#N)cc2c(=O)n3ccccc3nc21,-7%,?,3.2µM*,i,12%,?,-1%,-15%,1%
COCCn1c(=N)c(C(=O)NCCc2ccccc2)cc2c(=O)n3cccc(C)c3nc21,-9%,nt,35%[activator],nt,-1%,nt,4%,1%,3.2µM*
COc1ccc(CCNc2oc(COc3ccccc3F)nc2C#N)cc1,7%,i,-7%,i,-22%,i,-1%,20µM*,112%
CC1=C(C(=O)N2CCOCC2)C(c2ccccc2F)C2=C(CC(C)(C)CC2=O)N1 (stereo not drawn),2%,i,0%,i,0%,?,4%,4%,-12%
CCN1CCN(Cc2c(O)c(Cl)cc3c(C)cc(=O)oc23)CC1,1%,nt,?,nt,-2%[7.66 µM],nt,0%,5%[11.4 µM],-4%[11.4 µM]
Cc1ccc2nc3c(cc(C(=O)NCC4CCCO4)c(=N)n3CCCOC(C)C)c(=O)n2c1 (stereo not drawn),?,i,32µM*,i,9%,?,0%,-10%,300%
COc1ccc(-c2cc(C(F)(F)F)n3ncc(C(=O)NCC4CCCO4)c3n2)cc1 (stereo not drawn),2%,i,69%[activator],i,3%,i,4%,10µM*,-26%
COc1cc2cc(CN(Cc3nnnn3Cc3ccccc3)CC3CCCO3)c(=O)[nH]c2cc1OC (stereo not drawn),-12%,i,?,i,nt,i,2%,-2%,80%
CNC(=O)c1ccc(-c2sc3nc(N4CCOCC4)c4c(c3c2N)CCCC4)o1,?,nt,-11%[11.4 µM],nt,28%[7.66 µM],nt,4%,-8%[11.4 µM],100%[11.4 µM]
Cc1cccc2cc3c(NC(=O)C(C)C)nn(C)c3nc12,2%,?,13%,i,6%,i,1%,-14%,12%
CCN1C(=O)c2cccc3c(S(=O)(=O)Nc4ccccn4)ccc1c23,-17%,i,13%,i,4%,i,2%,1%,1%
COc1ccc2[nH]cc(CCNc3nc(-c4ccc(N(C)C)cc4)nc4ccccc34)c2c1,?,i,-10%,i,?,i,0.63µM*,-38%[inhibitor],459%
CC(C)OCCCn1c(-c2ccco2)nc2nc3ccccc3nc21,-26%,i,1.6µM*,i,23%,i,-10%,10%,16µM*
COc1ccc(-c2cc(C(F)(F)F)n3ncc(C(=O)NCc4ccco4)c3n2)cc1,-17%,nt,13%,nt,4%,nt,-1%,-2%,181%
c1ccc2c3c([nH]c2c1)[C@@H]1[C@H]2CC[C@H]([C@H]4CCCN[C@H]42)N1CC3,6%[25.7 µM],i,-10%[25.6 µM],i,-13%[17.1 µM],?,0%[25.5 µM],-6%[25.6 µM],-28%[25.6 µM]
CCO/C=C1\C(=O)N(c2ccccc2)C(=O)c2ccccc21,-16%,nt,-13%,nt,-26%,nt,4%,17%,34%
CCn1c(=N)c(C(N)=O)cc2c(=O)n3cccc(C)c3nc21,-5%,i,25µM*,i,-4%,?,2%,-2%,-24%
Cc1nc2c(c(=O)n1Cc1ccccc1Cl)c1nc3ccccc3nc1n2Cc1ccco1,25µM*,i,?,i,-18%,i,-27%,?,16µM*
CCCCN(C)Cc1c(O)ccc2c(-c3ccccc3)cc(=O)oc12,0%,nt,8%,nt,4%,nt,2%,14%,14%

# 6 compounds from above, ordered by count of non-hydrogen atoms, smallest number first:
SMILES,ERK AVP block,TexasRed autofl,HADH2 inhib,Rhodamine fluor,USP2a inhib,Fluorescein fluor,Luciferase inh,HEK293 cAMP cs,Tau filament bind
CCN1C=C(C(=O)OC)C(c2cccc(C)c2)C(C(=O)OC)=C1,24%,nt,32µM*,nt,-2%,nt,-9%,14%,11%
CC(C)OCCCn1c(-c2ccco2)nc2nc3ccccc3nc21,-26%,i,1.6µM*,i,23%,i,-10%,10%,16µM*
CN(C)c1ncc2nc(-c3ccc(Cl)cc3)c(=O)n(Cc3ccc(F)cc3)c2n1,2%,i,3%,i,108%[activator],i,1%[11.4 µM],6%[0.457 µM],32%
COc1ccc(-c2cc(C(F)(F)F)n3ncc(C(=O)NCc4ccco4)c3n2)cc1,-17%,nt,13%,nt,4%,nt,-1%,-2%,181%
COc1ccc2[nH]cc(CCNc3nc(-c4ccc(N(C)C)cc4)nc4ccccc34)c2c1,?,i,-10%,i,?,i,0.63µM*,-38%[inhibitor],459%
COc1cc2cc(CN(Cc3nnnn3Cc3ccccc3)CC3CCCO3)c(=O)[nH]c2cc1OC (stereo not drawn),-12%,i,?,i,nt,i,2%,-2%,80%

# Screens as filed in PubChem.
